# Compound activity from PubChem.
# UCH37 inh – inhibitors of human deubiquitinating enzyme UCH37; Q9Y5K5; purified proteasome/UCH37, Ub-AMC cleavage fluorescence; inhibition, % (no concentration beside the values); 330,000 tested, 0.33% active; AID 588478;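 active = mean of two replicates above 20%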;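 note: 0% = compound-free wells with enzyme and 100% = wells lacking proteasome; stock transfer was 100 nL into about 20 µL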
# Target sequence (Q9Y5K5 whole entry, looked up): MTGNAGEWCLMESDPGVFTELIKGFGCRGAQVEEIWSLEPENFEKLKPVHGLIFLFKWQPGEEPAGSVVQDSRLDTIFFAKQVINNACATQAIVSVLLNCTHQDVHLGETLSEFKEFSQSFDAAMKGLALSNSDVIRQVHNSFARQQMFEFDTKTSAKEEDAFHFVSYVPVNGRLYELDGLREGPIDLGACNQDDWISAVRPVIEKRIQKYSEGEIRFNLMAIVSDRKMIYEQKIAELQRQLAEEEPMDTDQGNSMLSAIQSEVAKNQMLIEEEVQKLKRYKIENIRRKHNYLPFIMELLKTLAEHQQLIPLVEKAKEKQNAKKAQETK
#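 Material: human UCH37 enzyme supplied as purified proteasome complex / Amount: 0.15 nM proteasome as dispensed / Buffer or medium: pH 7.4 Tris-HCl (50 mM) with ovalbumin, ATP-MgCl2, DTT / Times: preincubation 30 min, reaction 25 min, room temperature / Technique: AMC fluorescence from Ub-AMC cleavage, excitation 355 nm, emission 460 nm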
# RanGTP-Impb inh – disruptors of Ran-importin-beta complex formation – biochemical, FRET, CFP-Ran, YFP-importin-beta, homogeneous, primary screen; cell-free CFP-Ran/YFP-importin-beta FRET ratio; inhibition, % (no concentration beside the values); 300,000 tested, 1.1% active;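 active = most replicates above 15%; inconclusive = exactly half above 15%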;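 note: 0% = DMSO wells and 100% = Ran loaded with GDP instead of GTP; wells of about 40 µL received 100 nL stock; the first replicate is given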
# LANA-H2B inh – blocks KSHV LANA binding to histone H2A/H2B. inhibition, % (concentration not given with the values). Q9QR71. AID 2629. 320,000 tested, 0.6% active. cell-free LANA-H2A/H2B peptide, fluorescence polarization; in the data active = inhibition mostly above about 10%, no sharp cut-off; inactive = mostly below about 6.7%;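 note: stock transfer was 7.5 nL into about 10 µL; 0% = median of vehicle wells and 100% = median of positive control wells; one replicate is shown; the record names a cut of 25% in any replicate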
# Calb FLC – C. albicans growth modulation with fluconazole; AID 1979; C. albicans CaCi-2 (fluconazole-resistant clinical isolate) + fluconazole, Alamar Blue growth, 48 h; 300,000 tested, 0.57% active; growth inhibition, % (test concentration not listed);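 active = most replicates above 75%; inconclusive = exactly half above 75%; inactive = most below 75%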;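 note: all wells also contain fluconazole at 8 µg/ml as a sub-toxic cotreatment; 0% = median of DMSO wells and 100% = median of geldanamycin control wells; wells of about 8 µL received 7.5 nL stock; the first replicate is given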
# Bfl-1 A1 inh – inhibitors of the anti-apoptotic protein A1, read as caspase activation; MEF A1-2A-BIM cells, Caspase-Glo 3/7 luminescence, 3 h; percent of clofoctol response, vehicle zero; caspase activation, % (concentration not given with the values); 330,000 tested, 0.066% active; AID 2462;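 active = over half of replicate activation scores above 10%, or exactly half above 10 with the replicate mean above 10; inconclusive = replicate mean below 10 yet half the replicates above 10; inactive = over half of replicates below 10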;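 note: wells of about 30 µL received 50 nL stock; many hits fall short of the cut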
# T cruzi repl – T. cruzi replication inhibition; 300,000 tested, 1.4% active; AID 1885; T. cruzi beta-gal in NIH3T3, luminescence, 90 h; inhibition, % (concentration not given with the values);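 active = mean inhibition across valid replicates above about 55%, limit read from the data; inconclusive = mean below that limit but half or more replicates reach it; inactive = mean below it, under half of replicates reach it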;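 note: signal also drops with host cell toxicity which is not excluded here; 0% = plate median of DMSO wells and 100% = zero luminescence signal; higher percent means less beta-gal luminescence so fewer parasites; stock transfer was 50 nL into about 50 µL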
# Beta cell apopt – beta cell apoptosis inhibition; INS-1E cytokine-induced death, ATP luminescence, 48 h; percent of positive-control rescue, neutral wells zero; protection from apoptosis, % (no concentration beside the values); 300,000 tested, 0.8% active; AID 435005;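 active = all replicates at 75% or more, or half of them and the mean; inconclusive = half reach 75% but not the mean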;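 note: 0% = cytokine-treated negative control wells and 100% = positive control rescue; higher means more ATP so stronger rescue from cytokine killing; wells of about 40 µL received 100 nL stock; the first replicate is given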
# Beta2AR agonist – agonists of human beta-2 adrenergic receptor inducing internalization; Am2.2-beta2AR cells, FAP receptor internalization, flow cytometry; reference of the scale not given here; 340,000 tested, 0.43% active; response, % (test concentration not listed); AID 504454; P07550;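 active = response above a set limit, near 3 SD of response in nonfluorescent compounds, cut at about 42% in these data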;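 note: stock transfer was 100 nL into about 11 µL; a reference agonist was the positive control; negative values mostly stem from fluorescent compounds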
# Target sequence (P07550 whole entry, looked up): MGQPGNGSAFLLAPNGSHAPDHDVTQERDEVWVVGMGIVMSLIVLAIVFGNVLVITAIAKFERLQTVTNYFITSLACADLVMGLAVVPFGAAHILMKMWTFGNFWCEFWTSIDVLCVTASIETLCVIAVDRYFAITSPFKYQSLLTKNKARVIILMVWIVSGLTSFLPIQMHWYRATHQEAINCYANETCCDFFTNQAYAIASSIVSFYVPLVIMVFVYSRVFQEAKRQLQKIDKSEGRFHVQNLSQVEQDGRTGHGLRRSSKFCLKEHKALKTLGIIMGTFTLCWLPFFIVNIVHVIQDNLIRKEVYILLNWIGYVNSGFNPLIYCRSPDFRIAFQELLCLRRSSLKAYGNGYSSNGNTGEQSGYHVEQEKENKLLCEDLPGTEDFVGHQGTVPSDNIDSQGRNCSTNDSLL
# An asterisk follows results filed as active; ? = inconclusive; nt = no result given; & = joins results of further samples.
SMILES,UCH37 inh,RanGTP-Impb inh,LANA-H2B inh,Calb FLC,Bfl-1 A1 inh,T cruzi repl,Beta cell apopt,Beta2AR agonist
COC(OC)c1ccc(C#N)c(SCc2ccccc2)n1,5.6,9.5,5.6,25,-0.3,nt,-8,-16
O=C(c1ccc(-c2nc3ccccc3s2)s1)N1CCOCC1,-68,1.1,1.6,48,-7.1,9,13,nt
COc1cc(OC)c(-c2c3cc(O)c(=O)cc-3oc3cc(O)c(O)cc23)cc1OC,18,nt,-175,nt,0.4,nt,7,-186
Cc1c(NC(=O)NCc2ccccc2)c(=O)n(-c2ccccc2)n1C,1.4,1.7,-3.3,3,0.1,-2,-2,0
CC(C)c1ccc2c(c1)c(SC(C)(C)C)c(CC(C)(C)C(=O)O)n2Cc1ccc(Cl)cc1,6.3,-3.9,1.1&2.8,nt,-0.1&0.7,13,-4&21,1
C=C1CCN([C@@H](CC(C)C)C(=O)NCc2ccc(Cl)c(Cl)c2)S(=O)(=O)c2ccccc21,2.1,-1.8,-0.8,-2,-0.4,29,17,3
Cc1nc2ccc(C(=O)N3CCSCC3)cc2s1,-3.6,3.0,6.8,-3,0.4,-3,-3,5
O=C(NC(=S)NC1CCS(=O)(=O)C1)c1cccs1 (stereo not given),5.3,-1.2,3.2,-1,1.6,-11,-4,-9
Cc1cc(Cl)ccc1OCC(=O)N1CC(C)CC(C)C1 (stereo not given),0.8,0.2,-3.7,34,-1.0,7,-3,0
COc1ccc(CCC(=O)NC(C)c2ccccc2)cc1OC (stereo not given),4.6,2.4,-2.7,0,0.6,-15,-4,2
CSc1ccccc1OCc1cc(C(=O)N2CCN(c3ccccc3)CC2C)no1 (stereo not given),-2.9,0.2,-1.3,-3,-0.5,16,-1,4
c1cn(CC2(Cn3ccnc3)COC2)cn1,-0.2,-1.4,2.1,4,0.0,-8,0,-9
CSc1ccc(S(=O)(=O)N(C)Cc2ccccc2)cc1,3.9,2.1,-0.7,?,0.7,5,-7,-3
CCN(CC)C(=O)Cn1cc(C(=O)C(=O)NCc2cccs2)c2ccccc21,8.8,nt,-2.2,7,-0.7,nt,-2,5
O=C(O)c1ccc(CSc2nnc(-c3ccco3)o2)cc1,4.3,1.0,-11,-2,-1.7,-14,0,2
O=[N+]([O-])c1cc(-c2nc(-c3ccncc3)no2)cc([N+](=O)[O-])c1,3.0,?,-3.1,-13,0.6,32,-4,-5
Cc1ccc2nc(Nc3ccccc3)c(/C=N/O)c(=O)n2c1,nt,3.2,0.1,3,0.5,10,4,10
COc1cccc(OC)c1C(=O)NNC(=O)c1cccnc1,1.5,10,4.8,-4,0.2,-11,-4,-9
CCOc1ccc(/C=N/NC(=O)c2nnn(-c3nonc3N)c2-c2cccs2)cc1,nt,0.8,1.6,1,1.1,22,-4,-2
CN(C)c1ccc(Nc2nc(-c3cccnc3)cs2)cc1,-0.4,0.3,2.1,4,0.4,17,5,-2
CCCCCC(=O)Nc1c(-c2ccc(OC)cc2)c(=O)c2ccccc2n1C,-90,-1.3,1.4,?,0.4,-4,1,-7
COc1ccc(OCc2nc3ccc(S(=O)(=O)Nc4ccccc4Cl)cc3[nH]2)cc1,-1.8,-0.9,2.0,1,-0.9,-26,4,-2
Cc1nnc2c(NC(C)C)nc3ccccc3n12,2.5,-2.3,1.5,0,-0.4,-3,4,-18
CCc1cccc(C)c1NC(=O)CSc1nnc(Cc2csc(C)n2)o1,1.3,-0.3,-1.3,3,-0.1,-10,-1,-16
CC(=O)N/N=C\c1cccc(OC/C=C/c2ccccc2)c1,nt,nt,2.7,-1,-0.2,nt,6,5
SMILES,UCH37 inh,RanGTP-Impb inh,LANA-H2B inh,Calb FLC,Bfl-1 A1 inh,T cruzi repl,Beta cell apopt,Beta2AR agonist
CCc1ccc(S(=O)(=O)Nc2nnc(N)s2)cc1,2.1,-1.3,3.2,-5,-0.5,0,-4,-5
O=C(CSCC(=O)Nc1ccc2ccccc2c1)NCc1ccccc1,0.8,0.8,-1.2,45,0.4,-8,nt,-8
Cc1ccc(NS(=O)(=O)c2cc(C(=O)NCc3ccccn3)ccc2Cl)cc1,1.1,-0.3,-10,0,-0.3,13,nt,-5
CC(C)(C)c1ccc(C(=O)Nc2cccc(S(=O)(=O)NC3=NCCC3)c2)cc1,0.4,nt,-3.5,nt,0.4,nt,1,3
Fc1ccc(Nc2cccc3nccnc23)cc1,2.1,-5.0,4.3,3,-3.0,0,-5,-2
C=C(Cl)COC(=O)C1C2C=CC(C2)C1C(=O)O (stereo not given),-2.5,5.4,-3.0,7,-0.8,-10,-3,-2
O=C1CCN(C(=O)CSc2ccc(Cl)cc2)N1,-0.6,0.6,3.0,7,0.0,2,-4,3
Cc1ccc(C(=O)OCC(=O)NC2CCCC2)cc1C,2.1,-0.7,5.8,-1,0.8,3,0,2
Clc1ccc(OCCCCSc2ncccn2)cc1,2.0,-1.1,3.0,15,-1.0,-8,nt,-7
CCOC(=O)C1[C@H]2C(=O)N(CCCOC)C[C@]23C=C[C@H]1O3 (stereo not given in full),0.1,-0.2,-2.9,28,0.4,4,-13,-4
COc1ccc(CN2CCNC(=O)C2CC(=O)NCc2csc(C(C)C)n2)c(OC)c1 (stereo not given),-0.9,-1.3,0.1,-14,0.5,2,-6,nt
O=C(Nc1ccc(F)cc1)c1cccnc1Oc1ccccc1,3.8,-1.4,2.5,1,-1.5,-14,2,-1
COc1cccc(C(C)NC(=O)c2c(F)cccc2Cl)c1 (stereo not given),4.0,6.4,0.9,3,-0.3,10,-3,6
NC(=O)CS(=O)(=O)c1nc2ccccc2n1Cc1ccccn1,-1.9,-1.0,-0.5,9,0.0,2,-6,3
Cc1oc(-c2ccccc2F)nc1CS(=O)CC(=O)NCc1cccs1 (stereo not given),3.4,1.1,23,-3,-0.5,-2,-8,-10
CCCN(C(=O)COc1ccc(Cl)cc1Cl)c1c(N)n(Cc2ccccc2)c(=O)[nH]c1=O,0.8,-0.5,7.1,35,-0.1,10,-5,-16
CCOC(=O)Nc1ccc2c(COC(=O)CNS(=O)(=O)c3cccc(Br)c3)cc(=O)oc2c1,-221,3.8,-1.3,-33,-0.8,-13,nt,17
O=C(NC(=S)NCc1ccc2c(c1)OCO2)c1ccccc1,5.0,4.4,nt,-60,0.4,2,-2,0
O=C(O)c1ccccc1N/C=C\[N+](=O)[O-],-4.0,-5.4,2.5,-11,1.4,1,-6,-1
CN(C)c1ccnc(SCc2ccccc2Cl)c1C#N,2.4,-1.3,3.0,-15,0.1,3,-2,11
O=C1CC(c2ccccc2)CC(O)=C1C=NCc1ccccc1Cl (stereo not given),2.9,-2.1,0.9,4,0.0,-2,13,11
COc1c(OC2OC(C(=O)O)C(O)C(O)C2O)cc(O)c2c(=O)cc(-c3ccccc3)oc12 (stereo not given),2.3,4.4,3.8,-1,-0.8,-5,-5,-6
NS(=O)(=O)c1ccc(CCNC(=O)c2cc(=O)[nH]c3ccccc23)cc1,-25,?,-2.9,-4,-0.3,-14,0,-2
COc1ccc(C(=O)NC(C)c2nnc(SCC(=O)NC3CCCC3)n2C)cc1 (stereo not given),1.4,4.8,3.1,1,1.6,-3,-6,-10
O=C(C1CCCO1)N1CCN(C(=S)Nc2ccccc2F)CC1 (stereo not given),0.9,-1.4,-6.3,1,0.1,-7,-2,7
SMILES,UCH37 inh,RanGTP-Impb inh,LANA-H2B inh,Calb FLC,Bfl-1 A1 inh,T cruzi repl,Beta cell apopt,Beta2AR agonist
CCN(CC(=O)NCc1cccs1)c1ccc(S(=O)(=O)N2CCN(C)CC2)cn1,0.2,5.8,-2.8,-11,0.3,-7,-7,-3
Cc1cc(Br)cc(Cl)c1OCC(=O)NC(=O)NCc1ccccc1,1.1,-0.9,4.5,-3,-0.6,10,-6,-4
COc1ccccc1N1CCN(/N=C/c2ccc(OC)c(OC)c2OC)CC1,nt,0.4,2.9,24,-0.6,-15,-6,10
CC(C)Nc1nc(NC(C)C)nc(NS(=O)(=O)c2ccc(N)cc2)n1,-0.1,-3.4,-0.2,-29,-0.8,-1,-2,0
CCCCS(=O)(=O)N1CCCC(C(=O)N2CCOCC2)C1 (stereo not given),1.2,-3.8,1.0,-3,-1.1,-9,-5,-5
COc1ccc(N=C2SCC(=O)N2CCc2ccc(OC)c(OC)c2)cc1,5.4,-1.1,0.9,-2,-1.0,-17,-2,1
COc1cccc(CCNC(=O)C2CCC(=O)N(C3CC3)C2)c1OC (stereo not given),5.4,-1.4,nt,-7,nt,-9,nt,-4
Cn1nccc1C(=O)Nc1sc2c(c1C(N)=O)CCCC2,-390,-0.9,1.4,44,-1.3,9,-2,4
Cc1ccc(S(=O)(=O)N2CC(=O)Nc3ccccc32)c(C)c1NS(C)(=O)=O,4.8,?,-1.8,-4,-0.7,0,nt,3
COc1ccc(NC(=O)c2ccccc2N(Cc2ccccc2)S(C)(=O)=O)cc1OC,-1.9,-2.8,0.4,-9,0.1,10,-4,5
CC(C)(C)n1nnnc1C(c1cccs1)N1CCN(Cc2ccc3c(c2)OCO3)CC1 (stereo not given),0.9,1.5,1.7,-18,0.0,15,nt,-2
Cc1cc2occ(CC(=O)N(C)CC(=O)Nc3ccccc3C(F)(F)F)c2cc1C,1.2,nt,-0.1,nt,-0.3,nt,-6,3
Cc1onc(-c2c(F)cccc2Cl)c1C(=O)NCc1cccs1,4.3,9.9,-6.4,13,-0.2,0,-5,0
CCOc1cccc(CNCc2cccnc2)c1OCc1ccccc1,3.0,5.9,-3.0,48,0.9,-7,-11,7
CC(=O)Oc1ccccc1C(=O)NC(C)CCc1ccccc1 (stereo not given),-0.7,5.5,2.4,14,0.4,-10,-2,2
O=C(CC1C(=O)NCCN1Cc1cccc(F)c1)NCCCCCN1CCOCC1 (stereo not given),-2.6,-5.7,4.4,-6,0.1,-18,-2,-8
O=C1CCCC(O)=C1N=Nc1ccc(Cl)c(Cl)c1,4.3,2.4,3.0,-5,-0.7,-17,0,-6
CCC1(CC)NC(=O)N(CC(=O)OCc2nc3cc(C(=O)OC)ccc3c(=O)[nH]2)C1=O,-9.8,nt,6.6,nt,-0.4,nt,-8,6
O=C1COc2ccc(S(=O)(=O)NCc3ccccc3)cc2N1,0.6,2.0,2.1,-2,-0.2,4,-2,5
CN(C)c1ccc(NC(=S)NC23CC4CC(CC(C4)C2)C3)cc1,2.3,0.1,-1.1,-29,-0.6,27,111*,1
CC1CCCCC1NC(=O)/C(C#N)=C/c1ccc2c(c1)OCCO2 (stereo not given),0.9,-3.3,0.6,41,0.2,10,1,nt
Cc1nc2ccc3nc(NC(=O)c4ccc5c(c4)OCCO5)sc3c2s1,-10,2.7,8.6,-1,-0.5,-10,-7,38
Cc1cc(Cl)ccc1NNC(=O)c1cccs1,5.5,-2.0,0.7,-14,0.6,-3,-5,6
CCOC(=O)C1(CCCc2ccccc2)CCN(C(=O)CCOC)CC1,1.5,-1.9,-5.1,15,-0.6,-6,-1,-2
O=C(COc1ccccc1C(=O)NCc1ccncc1)Nc1ccc(Br)cc1,nt,2.4,3.2,12,0.9,57*,3,-1
